Screens from PubChem.
D2 PAM: Beta-Arrestin HTS for Positive Allosteric Modulators of the Human D2 Dopamine Receptor: Potentiators | D(2) dopamine receptor (Homo sapiens), P14416 | DiscoveRx D2 beta-arrestin cells, luminescence, 90 min; 100% = 57 uM dopamine signal | AID 624464, 2012 | potentiation, % (concentration not given with the values) | actives 0.23% (n = 360,000); active = potentiation of 50% or more; inconclusive = 30% to 50%; inactive = 30% or less;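 also: compound concentration not given in the record; tested on top of an EC20 dose of dopamine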
Target sequence (P14416 whole entry, looked up): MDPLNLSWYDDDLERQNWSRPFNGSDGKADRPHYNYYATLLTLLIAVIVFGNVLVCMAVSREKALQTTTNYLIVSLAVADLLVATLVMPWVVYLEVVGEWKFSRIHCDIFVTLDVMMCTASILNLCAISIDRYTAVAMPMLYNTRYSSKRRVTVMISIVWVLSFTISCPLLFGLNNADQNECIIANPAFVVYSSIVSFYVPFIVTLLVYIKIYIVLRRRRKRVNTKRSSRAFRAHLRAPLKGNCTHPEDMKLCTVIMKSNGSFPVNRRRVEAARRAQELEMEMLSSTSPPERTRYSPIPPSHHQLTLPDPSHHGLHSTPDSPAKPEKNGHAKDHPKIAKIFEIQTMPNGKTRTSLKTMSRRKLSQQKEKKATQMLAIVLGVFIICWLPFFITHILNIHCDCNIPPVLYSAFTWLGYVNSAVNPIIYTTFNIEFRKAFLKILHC
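D2 cells co-treated with compound plus 50 nM dopamine (EC20) for 90 min at 37 deg C to detect potentiation. Beta-arrestin recruitment was read as enzyme-fragment luminescence after 1 h at ambient temperature. Full response was set by 57 uM dopamine.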
TRPML1 agonist: qHTS for Agonists of the Human Mucolipin Transient Receptor Potential 1 (TRPML1); Mucolipin-1 (Homo sapiens), Q9GZU1; activation, % (no concentration beside the values); TRPML1-expressing cells, Ca2+ dye fluorescence, FDSS; host cell line not named in the record; reference of the full effect not given here; actives 0.12% (n = 410,000); AID 624414, 2012; in the data active = activation above about 50%; inconclusive = about 30% to 50%; inactive = below about 30%; also: 0% is about no effect; the text of the record puts the active cut at 80%
Target sequence (Q9GZU1 whole entry, looked up): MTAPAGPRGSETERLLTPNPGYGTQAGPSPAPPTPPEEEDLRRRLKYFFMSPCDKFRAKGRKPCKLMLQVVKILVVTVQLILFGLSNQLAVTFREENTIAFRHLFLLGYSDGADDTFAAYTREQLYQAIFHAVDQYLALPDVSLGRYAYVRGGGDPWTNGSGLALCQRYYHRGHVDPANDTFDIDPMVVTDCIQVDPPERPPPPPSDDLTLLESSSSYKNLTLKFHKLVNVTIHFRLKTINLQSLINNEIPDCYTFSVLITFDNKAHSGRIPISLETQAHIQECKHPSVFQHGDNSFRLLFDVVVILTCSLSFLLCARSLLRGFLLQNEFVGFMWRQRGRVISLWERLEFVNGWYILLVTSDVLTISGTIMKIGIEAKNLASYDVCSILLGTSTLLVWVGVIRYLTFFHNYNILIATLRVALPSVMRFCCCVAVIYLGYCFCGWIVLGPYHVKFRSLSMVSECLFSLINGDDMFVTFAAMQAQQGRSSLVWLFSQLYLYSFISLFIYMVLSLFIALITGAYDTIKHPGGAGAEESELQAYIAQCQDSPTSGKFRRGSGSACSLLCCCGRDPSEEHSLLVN
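In this qHTS format, compounds were pin-transferred onto Ca8-dye-loaded TRPML1-DL cells induced with Tet overnight, and intracellular Ca2+ fluorescence was recorded kinetically for 110 s after a 10 s baseline. A subsequent 4uM final 54-4 (EC80) addition followed by a second 110 s read served as the antagonist phase.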
CtBP-E1A inh: qHTS Assay for Inhibitors of the CtBP/E1A Interaction | actives 0.49% (n = 340,000) | activity change, % (concentration not given with the values) | AID 651724, 2012 | AlphaScreen GST-E1A/His-CtBP binding, 1536-well; stronger effect = lower value; control for the full effect not named in the record; in the data active means activity change below about -65%; inconclusive means about -30% to -65%; inactive means above about -30%; also: % is scaled to controls: 0 for no effect and ±100 for the full control effect
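GST-E1A and His-tagged CtBP (125 nM each as 5X stock) were preincubated with pin-transferred compound for 2 h at 37 °C in the dark, then glutathione donor and nickel acceptor beads were added for 1 h before AlphaScreen reading.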
D2 agonist: Beta-Arrestin HTS for Positive Allosteric Modulators of the Human D2 Dopamine Receptor: Agonists; D(2) dopamine receptor (Homo sapiens), P14416; DiscoveRx PathHunter D2 beta-arrestin, luminescence, 90 min; 100% = 57 uM dopamine signal; activation, % (test concentration not listed); actives 0.084% (n = 360,000); in the data active = activation above about 40%; inconclusive = about 15% to 40%; inactive = below about 15%; also: compound concentration not given in the record; the text of the record calls up to 30% inactive
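DiscoveRx PathHunter D2 beta-arrestin cells (2,100/well) attached overnight, then compound-stimulated 90 min at 37 C in HBSS/10 mM HEPES/0.1% Tween-20 buffer; beta-galactosidase complementation read by luminescence after 1 h at ambient temperature. Dopamine 57 uM final (EC100) as control.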
PINK1 expr mod: A Quantitative High throughput Screen to Identify Chemical Modulators of PINK1 Expression; PINK1 immunofluorescence, high-content cytometry, 24 h; Potency, µM (titrated, usually from 76.6 µM), without a hit: top-dose activation (PINK1 increase), actives largely listed as activators; actives 0.2% (n = 410,000); active = well fitted activation curve with a large enough effect; inconclusive = small, poorly fitted or top-dose-only effect; inactive = flat fitted curve, though single readings scatter; cell line not stated here;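 also: potency is read from the fitted curve at half-maximal effect; % of control where 0% means no effect; nearly all actives have a fitted effect of over 65% in size; a mitochondrial uncoupler was the plate control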
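Stable cell line, 250 cells/well, 12 h attachment; compounds pinned at 5 concentrations, 24 h; CCCP control. Fixed with nuclear dye, primary antibodies 12 h at 10 degrees C, secondary plus cell stain; laser-scanning cytometer read.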
Six1-Eya2 inh: qHTS Assay for Inhibitors of the Six1/Eya2 Interaction | Homeobox protein SIX1 (Homo sapiens) + Protein phosphatase EYA2 (Homo sapiens), … | AlphaScreen GST-Six1/His-Eya2 binding, biochemical; stronger effect = lower value; control for the full effect not named in the record | activity change, % (concentration not given with the values) | actives 0.56% (n = 360,000); in the data active = activity change below about -65%; inconclusive = about -30% to -65%; inactive = above about -30%; also: % is scaled to controls: 0 for no effect and ±100 for the full control effect
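Homogeneous AlphaScreen proximity assay pairing GST-Six1 with His-tagged Eya2 (added as 5X mix: 250 nM and 500 nM) in 50 mM Tris pH 8.0, 300 mM NaCl, 1 mM TCEP. Glutathione donor and nickel acceptor beads; 1 h, 37 °C, dark.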
An asterisk follows results filed as active; u = inconclusive; x = not tested or not shown; & = joins results of further samples; [ ] = another dose, or the depositor's remark. Compounds as they come. About 1.3% of those tested had a hit in this group.

SMILES | D2 PAM | TRPML1 agonist | CtBP-E1A inh | D2 agonist | PINK1 expr mod | Six1-Eya2 inh
CC1CCN(c2ccccc2NC(=O)c2ccc(C#N)cc2F)CC1 | -1.9 | 0.0 | 2.6 | -6.6 | 4.3% | 10.3
CCN(C(=O)COC(=O)CNC(=O)c1cccc(C)c1)c1c(N)n(Cc2ccccc2)c(=O)[nH]c1=O | -13.8 | 0.3 | 1.2 | -2.4 | 1.0% | 0.0
O=C(Cc1ccccc1)N[C@@H](Cc1ccccc1)c1nc2ccccc2[nH]1 | -3.7 | -0.5 | 0.2 | -1.6 | 1.5% | -1.6
O=C(NCCCc1ccccc1)Nc1ccccc1 | -20.2 | 1.2 | 3.8 | -2.1 | 4.7% | -0.7
Cc1ccccc1-n1cc[nH]c1=S | -2.5 | 0.1 | 0.0 | -4.5 | -0.7% | -7.6
C[C@H]1C=C(C(=O)NCc2ccccc2)O[C@@H](OCc2ccc(CO)cc2)C1 | -4.1 | 1.5 | 0.3 | -2.4 | -1.5% | 4.8
CC[N+](C)(C)Cc1ccccc1Br | -10.2 | 2.8 | 6.9 | 3.2 | -0.8% | 0.0
COC(=O)c1ccc(/C=N/OCC(=O)NC2CCCC(C)C2C)cc1 (stereo unspecified) | -16.9 | 0.4 | 5.9 | -3.8 | 1.9% | 7.4
COc1ccc(C2C(C#N)=C(SCC(=O)Nc3ccc(C)cc3)NC3=C2C(=O)CC(C)(C)C3)cc1 (stereo unspecified) | -2.0 | 1.5 | -1.1 | 0.9 | 3.8% | -0.3
CCN(C(=O)CSc1nnc(-c2ccccc2Cl)n1N)c1c(N)n(Cc2ccccc2)c(=O)[nH]c1=O | 0.8 | -0.2 | x | -2.1 | 0.3% | 6.5
O=C(NCCCN1CCOCC1)C(=O)NCCc1ccccc1 | -30.3 | 1.2 | 2.3 | -0.2 | -1.3% | 1.7
Cc1nc(N2CCOCC2)sc1C(=O)NN | -6.7 | -0.2 | -21.3 | -4.6 | 27.0% | 3.5
O=C(CC(=O)Nc1cc(Cl)ccc1Cl)Nc1cc(Cl)ccc1Cl | -1.1 | 1.5 | 6.1 | -0.5 | 4.8% | 23.7
Cc1cccc(N(CC(=O)NC2CCCC2)C(=O)CS(=O)CC(=O)Nc2ccc3c(c2)OCO3)c1C (stereo unspecified) | -7.1 | 0.4 | -4.8 | -2.6 | 0.5% | -2.5
O=C(NCCN1C(=O)S/C(=C\c2ccc(Cl)c(Cl)c2)C1=O)c1cnccn1 | -6.3 | 0.0 | 2.0 | 7.3 | 12.1% | -6.4
CC(=O)N1CCN(c2ccc(NC(=O)c3ccc(C(C)(C)C)cc3)cc2)CC1 | 11.7 | -0.2 | 3.5 | 0.6 | -6.9%[38.3 µM] | -3.3
COc1ccc(-c2cc(C)no2)cc1S(=O)(=O)N1CCOc2ccc(Cl)cc21 | 2.8 | 0.1&0.3 | 1.9 | 2.0 | u | 1.3
O=C(N/N=C/c1ccccn1)c1ccc2nc[nH]c2c1 | -11.8 | -0.1 | u | -3.5 | 20.7% | u
CCN1CCN(CCCNC(=O)c2ccccc2NC(=O)C2=C(C)OCCS2)CC1 | -6.7 | -0.3 | 3.3 | -4.1 | -0.4% | -1.5
Cc1ccc(C)c(NC(=S)NCCN(C2CCCCC2)C2CCCC2)c1 | -11.1 | -0.8 | 2.6 | -0.3 | 6.7% | -3.5
Nc1c(C(=O)c2ccc(Br)cc2)oc2ccccc12 | -36.7 | 0.6 | 27.0 | -6.6 | 0.3% | 4.4
O=C(COC(=O)c1ccc(Cl)nc1)Nc1ccc2c(c1)OCO2 | -13.3 | 0.5 | -1.7 | -5.5 | -0.2% | 10.2
O=C(Nc1cccc(Br)c1)c1cc2ccccc2o1 | -29.5 | 2.5 | -5.2 | -2.2 | x | 11.9
C[C@@]12C(=O)N(c3ccc(Br)cc3)C(=O)N1[C@@H]1c3ccccc3OC[C@@H]1[C@H]2c1ccccc1 | -1.7 | 0.7 | -1.1 | -1.2 | 0.0% | -12.8
CC(C)(C)c1ccc(C(=O)N2CCC2(C)C(=O)Nc2ccc3nc[nH]c3c2)cc1 (stereo unspecified) | -3.5 | -0.6 | -11.8 | -3.1 | 2.2% | 2.2

Additional results:
SMILES | D2 PAM | TRPML1 agonist | CtBP-E1A inh | D2 agonist | PINK1 expr mod | Six1-Eya2 inh
O=C(c1ccco1)N1CCN(c2ncnc3scc(-c4ccc(Cl)cc4)c23)CC1 | 0.8 | -0.5 | -1.2 | 1.5 | -0.2% | -10.6
CCn1cc(CN2CCCC(C(=O)Nc3cccc(-n4cccn4)c3)C2)c(C)n1 (stereo unspecified) | -28.6 | -0.3 | 7.8 | -2.6 | 0.9% | -0.2
O=C(CCc1nnc2ccc(N3CCC4(CC3)OCCO4)nn12)Nc1cc(F)ccc1F | -7.8 | -0.4 | 0.0 | -0.2 | -1.0% | 1.0
COCCn1c(CN2CCN(C(c3ccccc3)c3ccccc3)CC2)nc2c1c(=O)n(C)c(=O)n2C | 1.0 | -0.5 | 5.1 | 1.5 | 6.0% | 2.8
CC1CC1C(=O)N(C)CC(=O)Nc1cccc(F)c1 (stereo unspecified) | -6.3 | -0.3 | -2.5 | -0.5 | -1.5% | 1.0
NC(c1csc(Nc2ccc(C(=O)NCCCO)cn2)n1)C1CCCCC1 (stereo unspecified) | -7.9 | -0.3 | u | -6.5 | 0.9% | u
C[C@@H]1CN([C@H](C)CO)C(=O)CCCn2nncc2CO[C@H]1CN(C)C(=O)Nc1cccc2ccccc12 | -0.6 | -0.9 | 2.5 | 0.6 | -0.8% | 2.5
CSCCC(NS(=O)(=O)c1ccccc1)C(=O)OCc1nc2ccsc2c(=O)[nH]1 (stereo unspecified) | -24.7 | -0.9 | 25.5 | -3.6 | 1.9% | 0.0
CC(Sc1nnnn1C)C(=O)Nc1nc(-c2ccc(F)c(F)c2)cs1 (stereo unspecified) | 0.4 | 0.0 | 0.3 | -0.3 | -0.1% | 0.0
CCC(C(=O)NC1CCCC1)N(Cc1ccco1)C(=O)CNS(=O)(=O)c1ccccc1 (stereo unspecified) | 5.7 | 1.0 | -19.2 | 1.6 | -0.6% | 9.2
Cc1ccc(CNS(=O)(=O)c2ccc(Br)s2)cc1 | 0.1 | x | 3.5 | 6.1 | 2.3% | 9.7
COc1ccc(NC(=O)CN2C(=O)CC(C)(C)S(=O)(=O)c3ccccc32)cc1 | 1.7 | 1.3 | 4.2 | -0.8 | -1.4% | -1.3
COCCOc1ccc(C(F)(F)F)cc1NC(=O)COC(=O)C12CC3CC(CC(O)(C3)C1)C2 | -8.7 | 0.2 | 1.5 | -5.1 | 3.4% | -1.6
CC(C)(C)C1CCC2(CC1)C(C#N)=C(SCC(=O)NC1CCCCC1)NC(=O)C2C#N (stereo unspecified) | 5.7 | 0.5 | 9.2 | 2.8 | 1.5%[38.3 µM] | 0.5
COC(=O)C(CC(C)C)N(Cc1cc(OC)cc(OC)c1)S(=O)(=O)c1ccccc1Br (stereo unspecified) | 2.1 | 2.6 | 3.2 | -4.5 | 0.9% | 6.0
Cn1c(Cn2c(=O)sc3ccccc32)nnc1SCC(=O)N1CCCCCC1 | -4.0 | 0.3 | -1.7 | 0.9 | 0.3% | 3.8
FC(F)(F)c1cc(-c2ccc(Cl)cc2)nc(NCc2cccnc2)n1 | -10.7 | 2.5 | 13.7 | 2.9 | 27.5%[38.3 µM] | 2.9
CCOc1ccc(NC(=O)C(=O)N/N=C/c2cccnc2)cc1 | -1.6 | x | -12.1 | 0.9 | 2.9% | 1.6
COc1ccc(/C=N/NC(=O)C(=O)N2CCN(c3ccccc3OC)CC2)cc1 | -3.5 | 0.4 | 1.8 | 1.8 | 10.4%[38.3 µM] | -1.8
CC1CCCCN1CCNC(=O)CN1C(=O)CSc2ccc(S(=O)(=O)N3CCCCC3)cc21 (stereo unspecified) | -11.5 | -0.5 | -0.1 | -3.7 | -1.1% | -0.7
COC(=O)c1cnn2c(C(F)(F)F)cc(-c3ccc(F)cc3)nc12 | 6.9 | -0.9 | 6.6 | -2.1 | -2.1% | -0.1
CC(=O)Nc1cc(OC(C)=O)c2nonc2c1OC(C)=O | 23.3 | -0.1 | u | 3.7 | -0.1%[38.3 µM] | -1.9
COc1ccc(-n2c(=O)c3ccccc3n(Cc3ccc(F)cc3)c2=O)cc1OC | -9.0 | 1.1 | 0.8 | -2.8 | -1.1% | 0.8
OC(c1ccc(-c2ccccc2)cc1)c1ncc(-c2ccccc2)[nH]1 (stereo unspecified) | -22.9 | -0.1 | -24.3 | -7.1 | 0.9% | -13.9
O=C(Nc1ccc(N2CCOCC2)cc1)Nc1ccc(Cl)c(Cl)c1 | -4.0 | 0.5 | -14.9 | 2.0 | 10.3%[38.3 µM] | u

Brought forward from above: 2 entries, followed by the next part.
SMILES | D2 PAM | TRPML1 agonist | CtBP-E1A inh | D2 agonist | PINK1 expr mod | Six1-Eya2 inh
OC(c1ccc(-c2ccccc2)cc1)c1ncc(-c2ccccc2)[nH]1 (stereo unspecified) | -22.9 | -0.1 | -24.3 | -7.1 | 0.9% | -13.9
O=C(Nc1ccc(N2CCOCC2)cc1)Nc1ccc(Cl)c(Cl)c1 | -4.0 | 0.5 | -14.9 | 2.0 | 10.3%[38.3 µM] | u
CCOC(=O)CNc1nc(Cl)nc(N2CCCCC2)n1 | -15.2 | -0.8 | x | -1.7 | 0.4% | 11.1
O=C(N/N=C/c1cc2c(cc1Cl)OCO2)c1ccncc1 | -1.5 | -0.1 | -12.3 | -2.8 | 1.0% | -13.7
CC(OC(=O)c1cc(=O)[nH]c2ccccc12)C(=O)Nc1ccc(Cl)cn1 (stereo unspecified) | -14.6 | 1.5 | 8.1 | -2.2 | 2.5% | -2.2
COc1ccc(CCC(=O)Nc2nnc(C(C)(C)C)s2)cc1 | -1.3 | 1.2 | 4.2 | -3.0 | -0.4% | -2.5
O=c1ccc2ccc(OCc3nnc(-c4ccccc4Br)o3)cc2o1 | -2.8 | 1.2 | -0.2 | 0.7 | 4.9% | -0.6
Cc1ccc(OCC(=O)N(Cc2ccccc2)c2ccccn2)cc1 | -1.2 | 0.1 | 16.2 | -4.7 | 2.2% | 0.7

Retrieved by structure from above, three records:
SMILES | D2 PAM | TRPML1 agonist | CtBP-E1A inh | D2 agonist | PINK1 expr mod | Six1-Eya2 inh
CCOC(=O)CNc1nc(Cl)nc(N2CCCCC2)n1 | -15.2 | -0.8 | x | -1.7 | 0.4% | 11.1
COc1ccc(CCC(=O)Nc2nnc(C(C)(C)C)s2)cc1 | -1.3 | 1.2 | 4.2 | -3.0 | -0.4% | -2.5
Cc1ccc(OCC(=O)N(Cc2ccccc2)c2ccccn2)cc1 | -1.2 | 0.1 | 16.2 | -4.7 | 2.2% | 0.7
